Anthrax LT inh – blocks cellular internalization of anthrax lethal toxin; Potency, µM (series often up to 40 µM), for inactives: top-dose activity change, negative = inhibition, usual class: inhibitors; 70,000 tested, 0.67% active; AID 912; Cells, anthrax lethal toxin internalization, FRET ratio (460/530); active = well fitted falling ratio curve with the 530 nm signal flat; inconclusive = other ratio curves, or a change in one channel alone; inactive = flat curves in the ratio and both channels; the % refers to the ratio; note: % is set by controls: 0 for no effect and ±100 for the full control effect; nearly all actives have a fitted effect of over 50% in size; tested in ME-180 cells; beta-lactamase reporter
Prx2 Sm inh – blocks S. mansoni peroxiredoxin 2 enzymatic activity; S. mansoni Prx2 activity coupled to TGR/GSH (TGR is thioredoxin glutathione reductase), NADPH fluorescence loss, qHTS; some inactives read as strong as hits; Potency, µM; 65,000 tested, 0.07% active; AID 448; active means full or partial inhibition curve with a strong effect at the top dose; inconclusive means weaker partial or single-point curve; inactive means no accepted curve; note: series up to 57 µM; many of its hits are not listed in these tables
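Coupled assay in which S. mansoni TGR passes NADPH reducing equivalents via glutathione to Prx2, which reduces H2O2. Compounds were preincubated 15 min at room temperature with 25 nM TGR/50 nM Prx2 mix. Kinetic NADPH fluorescence loss (ex 365/em 450 nm) was monitored.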
* hit, by the source's call; ? = inconclusive; nt = not tested or not shown; & = joins results of further samples; [ ] = another dose, or the depositor's remark. Potency is the fitted concentration of half-maximal effect. Not all compounds are listed; rates above refer to the full screens.

Order of values – Anthrax LT inh | Prx2 Sm inh
CCOc1ccccc1C(=O)NC(C(=O)OCC(=O)Nc1nnc(-c2ccccc2)o1)C(C)C (stereo not given)
 : 13% | >57
O=C1OC(O)C(C(Cl)Cl)=C1Cl (stereo not given)
 : ? | nt
Cc1ccsc1C(=O)OCc1csc(-c2ccccc2)n1
 : ? | >57
COc1ccc(OC)c(Nc2nc(-c3sc(N)nc3C)cs2)c1
 : ? | >57
O=C(NCC1CCCO1)c1nn2cccnc2c1Cl (stereo not given)
 : -13% | >57
CC(=O)Oc1ccc(C(=O)Nc2nccs2)cc1
 : 0% | >57
c1ccc2nc3c(nc2c1)CCc1nonc1-3
 : ? | >57
N[C@@H](CSS(=O)(=O)O)C(=O)O
 : ? | nt
NCCCCCNC(=O)/C=N\O
 : 7% | >57
O=C(Nc1ccc(F)c(F)c1)NC1CCCCC1
 : -12% | >57
CC(C)=CCC/C(C)=C/CO/N=C1/C[C@@H](O)[C@@H](O)[C@@H]2[C@@H]3C(=O)N(C[C@@H]4CCCO4)C(=O)[C@H]3CC[C@@H]12
 : -5%[8 µM] | nt
CCOc1ccccc1OCC(=O)Nc1ccc(N2CCCCC2)cc1
 : ? | >57
Cc1ccc(-n2ncc3c(=O)n(Cc4ccccn4)cnc32)cc1C
 : -3% | >57
Nc1n[nH]c(-c2ccc(F)cc2)n1
 : -29% | >57
O=C(c1ccco1)N1CCN(C(=O)C2CC(c3ccc(F)cc3)=NO2)CC1 (stereo not given)
 : -5% | >57
CC(C)Oc1ccc(CC2CC(=O)NC2=O)cc1 (stereo not given)
 : -4% | >57
COc1ccc(Cl)cc1C(=O)CSc1nnnn1C1CCCC1
 : -26% | >57
COc1ccc(-c2cc(C(=O)N3CCCCC3)no2)cc1OC
 : 6% | >57
CCOc1ccc(NC(=O)CSc2nc3cccnc3n2CC)cc1
 : -8% | >57
CCCC(=O)NCCc1c2n(c3ccc(OC)cc13)CCCc1ccccc1-2
 : -14% | >57

Quoted at random: 7 records from the list, in no set order.
Order of values – Anthrax LT inh | Prx2 Sm inh
NCCCCCNC(=O)/C=N\O
 : 7% | >57
CCCC(=O)NCCc1c2n(c3ccc(OC)cc13)CCCc1ccccc1-2
 : -14% | >57
CC(=O)Oc1ccc(C(=O)Nc2nccs2)cc1
 : 0% | >57
Cc1ccc(-n2ncc3c(=O)n(Cc4ccccn4)cnc32)cc1C
 : -3% | >57
c1ccc2nc3c(nc2c1)CCc1nonc1-3
 : ? | >57
O=C(NCC1CCCO1)c1nn2cccnc2c1Cl (stereo not given)
 : -13% | >57
Cc1ccsc1C(=O)OCc1csc(-c2ccccc2)n1
 : ? | >57

The list continues.
Order of values – Anthrax LT inh | Prx2 Sm inh
CC(C)NC(=O)N1CCC2(CCNCC2)CC1
 : ? | >57
O=C(Cn1[nH]c(=O)c2ccccc2c1=O)NCc1cccnc1
 : -9% | >57
CC1=C(C(=O)OC2CCCCCCC2)C(c2cccc(O)c2)NC(=O)N1 (stereo not given)
 : ? | nt
COC(=O)c1cc2nc(-c3ccc(OC)c(OC)c3)cc(C(F)(F)F)n2n1
 : -7% | >57
N#Cc1nc(COc2ccccc2F)oc1NCc1ccc(F)cc1
 : ? | >57
COc1ccc(N2CCN(C(=O)c3ccc4c(=O)n(CC5CCCO5)c(=O)[nH]c4c3)CC2)cc1 (stereo not given)
 : 7% | >57
C=CCOc1cccc(C2c3c(oc4ccccc4c3=O)C(=O)N2c2ccccn2)c1 (stereo not given)
 : 0% | >57
COc1ccc(N2CCN(C(=O)c3ccc(CNc4c(N5CCOCC5)c(=O)c4=O)cc3)CC2)cc1
 : -3% | >57
CC(C(=O)NCc1ccccc1)N1C(=O)C2CC=C(Cl)CC2C1=O (stereo not given)
 : nt | >57
CN(C)CCN1C(=O)C(O)=C(C(=O)c2ccco2)C1c1ccccc1F (stereo not given)
 : -3% | >57
COc1ccc(C2CC(c3cccc(C)c3)n3nc(N)nc3N2)cc1 (stereo not given)
 : -3% | >57
COc1ccc(NC(=O)CS(=O)CC(=O)NCc2cccc(C(F)(F)F)c2)cc1 (stereo not given)
 : 6% | >57
N/C(CC/C(N)=N/O)=N\O
 : ? | >57
CC1CN(c2oc(-c3ccco3)nc2S(=O)(=O)c2ccccc2)CC(C)O1 (stereo not given)
 : -5% | >57
COc1ccccc1CNC(=O)COC(=O)c1ccc(S(=O)(=O)N2CCCC2)cc1
 : -6% | >57
Cc1cc(NS(=O)(=O)c2ccc(NC(=O)CCc3ccccc3)cc2)no1
 : -11% | >57
COc1ccc(N2C(=O)NC3CC2(C)Oc2ccc(Cl)cc23)cc1OC (stereo not given)
 : -9% | >57
CC(=O)OC[C@H]1O[C@@H](O/N=C(\C)CCC(=O)OC[C@@H]2O[C@H](C#Cc3ccccc3)C=C[C@@H]2Oc2ccc(C)cc2)[C@H](OC(C)=O)[C@@H](OC(C)=O)[C@H]1OC(C)=O
 : ? | nt
CCOc1ccc(NC(=O)CCC(=O)OC)cc1
 : 5% | nt
CCn1c(Cc2ccccc2)nnc1SCC(=O)Nc1cc(C)on1
 : -5% | >57

Record cards, as listed above. Order of values: Anthrax LT inh | Prx2 Sm inh
`COc1ccc(N2C(=O)NC3CC2(C)Oc2ccc(Cl)cc23)cc1OC` (stereo not given) reads -9% | >57
`CN(C)CCN1C(=O)C(O)=C(C(=O)c2ccco2)C1c1ccccc1F` (stereo not given) reads -3% | >57

The list continues:
Order of values – Anthrax LT inh | Prx2 Sm inh
COC(=O)[C@@]1(Cc2ccc(OC)cc2)[C@H]2c3cc(C(=O)N(C)C)n(CCF)c3C[C@H]2CN1C(=O)c1ccccc1
 : ? | >57
COCCN1Cc2cccc(C(=O)NC3CCCCCC3)c2C1=O
 : 6% | >57
Cc1onc(-c2ccccc2Cl)c1C(=O)N1CCc2ccccc21
 : ? | nt
Cn1nnnc1SCCNCC#Cc1ccccc1
 : 4% | >57
COc1cc(-c2nnc(SCC(=O)c3ccccc3)o2)cc(OC)c1OC
 : ? | >57
COCCCN1C(=O)C(=O)/C(=C(/O)c2ccc3c(c2)OCCO3)C1c1ccc(C(=O)OC)cc1 (stereo not given)
 : ? | >57
CCCNc1nc2c(c(=O)[nH]c(=O)n2C)n1CCCc1ccccc1
 : -2% | >57
CN1CC=C2C(C#N)=C(N)C(C#N)(C#N)C(c3cccc(Cl)c3Cl)C2C1 (stereo not given)
 : ? | >57
Cc1ccc(OCc2nn3c(-c4ccco4)nnc3s2)cc1
 : -4% | >57
COc1ccc2nc3sc(C(=O)NCc4cccs4)c(N)c3cc2c1
 : 2% | >57
Cc1cc(-c2ccco2)n(CC(=O)NCc2ccco2)n1
 : -3% | >57
Cc1ccc(N2CC(C(=O)Nc3ccccn3)CC2=O)cc1 (stereo not given)
 : -8% | >57
CC1Cc2ccccc2N1C(=O)c1ccnc(C(C)(C)C)c1 (stereo not given)
 : nt | >57
CCC(C)NC(=O)C1CN(S(=O)(=O)c2ccccc2)CCN1S(=O)(=O)c1ccccc1 (stereo not given)
 : -9% | nt
COc1ccc(C(=O)NC(C(=O)NCc2ccccn2)C(C)C)cc1 (stereo not given)
 : 11% | >57
CO[C@]1(NC(=O)[C@H](C(=O)O)c2ccc(O)cc2)C(=O)N2C(C(=O)O)=C(CSc3nnnn3C)CO[C@H]21
 : ? | >57
CN(C)c1oc(COc2ccccc2F)nc1C#N
 : -24% | >57
CCOc1ccccc1NC=C1C(=O)OC(C)(C)OC1=O
 : 7% | >57
O=C(NC1CC1)c1cccc(Nc2ccc(-c3ccc4c(c3)OCCO4)nn2)c1
 : -29% | >57
COc1ccc(-c2cc3ccccc3n2CC(O)CN2CCOCC2)cc1 (stereo not given)
 : -3% | >57

Next part:
canonical_smiles	Anthrax LT inh	Prx2 Sm inh
COc1ccc(C(C)=O)cc1COC(=O)Cn1cnc2ccccc2c1=O	2%	>57
COc1ccc(CN2C(=O)CN=C2Nc2ccc(C)cc2C)cc1	-34%	>57
CCOC(=O)Nc1nnc(-c2cccc(OC)c2)s1	8%	nt
C=CCNc1ncnc2ccc(Br)cc12	-21%	nt
Cn1cccc1C(=S)N=P(C1CCCCC1)(N1CCOCC1)N1CCOCC1	11%	>57
COc1cc(C(=O)Nc2ccc(NC(=O)c3ccco3)nc2)cc(OC)c1OC	-17%	>57
Cc1ccccc1Oc1ccc(S(=O)(=O)NCCC(=O)O)cc1	17%	>57
O=C(NCCN1CCCC1=O)Nc1ccccc1	-6%	>57
O=C(CN1CCN(c2ccccn2)CC1)NC1CCCC1	-15%	>57
O=C(Nc1nsc(-c2ccccc2)n1)c1cccs1	-2%	>57
COc1ccccc1N1CCN(C(c2ccc(F)cc2)c2nnnn2C(C)C)CC1 (stereo not given)	-21%	>57
O=C(CSc1nnc2scc(-c3ccccc3)n12)Nc1nsc(-c2ccccc2)n1	-17%	>57
CCN1C(=O)CC(n2c(C)nc3ccccc32)C1=O (stereo not given)	2%	>57
CC(=O)Oc1ccc(NC(=O)Cc2ccccc2)cc1	0%	>57
Cc1ccccc1-c1nc(CS(=O)(=O)CC(=O)NCc2ccc3c(c2)OCO3)c(C)o1	?	>57
CCc1nc(SCC(=O)c2cc(C)ccc2C)n[nH]1	-7%	nt
CN(c1ccc(F)cc1)S(=O)(=O)c1ccc2[nH]cc(C(=O)O)c(=O)c2c1	-7%	>57
Cc1[nH]c(=O)[nH]c(=O)c1CSc1nnc([C@H](CC(C)C)NC(=O)OC(C)(C)C)o1	-12%	>57
CCC(=O)N1CCc2cc(S(=O)(=O)N3CCc4ccccc4C3)ccc21	-3%	>57
Nc1c(C2=NCCO2)nnn1Cc1ccccc1	-2%	>57
N#Cc1nc(-c2ccco2)oc1N1CCN(Cc2ccccc2)CC1	-1%	>57
O=C1CCCCC(=O)N(c2ccccc2)c2ccccc21	-5%	nt
N[C@H](CCCP(=O)(O)O)C(=O)O	?	>57&>57&>26
O=C(c1cc(-c2ccc(F)cc2)on1)N1CCCC1	-2%	>57
CCCCc1nc2n[nH]c(N)c2c2c1CCC2	-15%	>57
Cc1ccc(-c2nc(CS(=O)CC(=O)N3CCC4(CC3)OCCO4)c(C)o2)cc1 (stereo not given)	3%	>57
Cc1ccc(-c2noc(CN(C(=O)CCCN3C(=O)c4ccccc4C3=O)C(C)C)n2)cc1	-22%	>57
CCCC(=O)NC(c1ccco1)c1cc(Cl)c2cccnc2c1O (stereo not given)	?	nt
COc1cc(OC)cc(C(=O)N2CCN(c3ncccn3)CC2)c1	?	>57
CCN1C(=O)C2(C(C(=O)c3ccc(C)o3)=C(O)C(=O)N2CCCN2CCOCC2)c2ccccc21 (stereo not given)	-5%	>57
Cn1c(C(=O)NC2CCCCCC2)cc2c(=O)n(C)c3ccccc3c21	1%	>57
Cc1ccccc1Cn1nnc(-c2cccc(C(=O)O)c2)n1	17%	>57
Cc1ccc(CNC(=O)CN2CCN(Cc3ccc(Cl)cc3)C2=O)cc1	-19%	>57
CCCCC(=O)Cl	-6%	nt
CC(=O)n1cc(C2C(=O)CCCC2=O)c2ccccc21	9%	>57
CCNc1ncc2nc(-c3ccc(OC)cc3)c(=O)n(CCC#N)c2n1	?	>57
CCCCc1n[nH]c2c1/C(=N/O)CC(c1ccccc1)C2 (stereo not given)	6%	>57
CCCSCCCNC(=O)Cn1cc2c(n1)CCCCC2	6%	>57
Cc1cnn(Cc2ccccc2)c1N	-9%	>57
Cc1nn(C)cc1CNC(=O)c1cnn2c(C(F)F)cc(C3CC3)nc12	11%	>57
COc1nc(NC(C)=O)nc(C)c1Br	0%	nt
Nc1nc(N)c2nc(CNc3ccc(C(=O)N[C@H](CCC(=O)O)C(=O)O)cc3)cnc2n1	?	>57
Cc1ccc(-c2nc3cccnc3o2)cc1NC(=O)COc1ccc(Cl)cc1C	?	>57
COc1ccc(CCNC(=O)CN(C)S(=O)(=O)c2cccs2)cc1OC	0%	>57
COC(=O)[C@@]1(Cc2ccc(OC)cc2)[C@H]2c3cc(C(=O)N(C)C)n(CCO)c3C[C@H]2CN1C(=O)c1ccccc1	-1%	>57
COc1cc2nc(C3CC3)n(NC(=O)c3ccc(Cl)cc3)c(=O)c2cc1OC	-12%	>57
CN(C)c1ccc(-c2cncnc2Nc2ccccc2)cc1	18%	>57
O=C1c2cccnc2C(=O)N1Cc1ccccc1	4%	>57
CO/N=C(\C)CCN1CCCc2nc(C)c(C)cc21	7%[1.6 µM]	nt
Cc1c(C(=O)NC2CC2)oc2ccc(S(=O)(=O)N3CCCCCC3)cc12	-3%	>57
Cc1ccc(C)c(N2CCN(C(=O)CN(C)S(=O)(=O)c3ccc4c(c3)CCC(=O)N4)CC2)c1	-25%	>57
N#CCCn1ncc2ccccc21	5%	>57
Cc1ccccc1C(=O)/C=C1\NC(=O)CS1	6%	nt
CCNc1ncc2nc(C)c(=O)n(C3CC3)c2n1	3%	>57
CC(CN(C)Cc1ccccc1)OC(=O)c1cccs1 (stereo not given)	-18%	>57
COc1ccc(O)c(-c2[nH]ncc2C(=O)c2ccccc2C)c1	?	>57
CN1CCN(C(=O)NC2CCCN2S(=O)(=O)c2ccc(Cl)cc2)CC1 (stereo not given)	?	>57
O=c1c2ccccc2nc2sc3ccccc3n12	9%	>57
